# Screening results deposited in PubChem BioAssay by several laboratories.
# RecA intein inh = Mtb RecA intein splicing inhibitors, primary screen, biochemical, fluorescence, HTS; inhibition, %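 (about 9 µM by stock and volumes)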; cell-free RecA intein splicing; Protein RecA (Mycobacterium tuberculosis (strain ATCC 25618 / H37Rv)), P9WHJ3; 0.75% of 290,000 active; in the data active means inhibition above about 30%; inconclusive means no clear call, values can overlap the other calls;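 further: 0% = vehicle wells and 100% = reference inhibitor control wells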
# Target sequence (P9WHJ3 whole entry, looked up): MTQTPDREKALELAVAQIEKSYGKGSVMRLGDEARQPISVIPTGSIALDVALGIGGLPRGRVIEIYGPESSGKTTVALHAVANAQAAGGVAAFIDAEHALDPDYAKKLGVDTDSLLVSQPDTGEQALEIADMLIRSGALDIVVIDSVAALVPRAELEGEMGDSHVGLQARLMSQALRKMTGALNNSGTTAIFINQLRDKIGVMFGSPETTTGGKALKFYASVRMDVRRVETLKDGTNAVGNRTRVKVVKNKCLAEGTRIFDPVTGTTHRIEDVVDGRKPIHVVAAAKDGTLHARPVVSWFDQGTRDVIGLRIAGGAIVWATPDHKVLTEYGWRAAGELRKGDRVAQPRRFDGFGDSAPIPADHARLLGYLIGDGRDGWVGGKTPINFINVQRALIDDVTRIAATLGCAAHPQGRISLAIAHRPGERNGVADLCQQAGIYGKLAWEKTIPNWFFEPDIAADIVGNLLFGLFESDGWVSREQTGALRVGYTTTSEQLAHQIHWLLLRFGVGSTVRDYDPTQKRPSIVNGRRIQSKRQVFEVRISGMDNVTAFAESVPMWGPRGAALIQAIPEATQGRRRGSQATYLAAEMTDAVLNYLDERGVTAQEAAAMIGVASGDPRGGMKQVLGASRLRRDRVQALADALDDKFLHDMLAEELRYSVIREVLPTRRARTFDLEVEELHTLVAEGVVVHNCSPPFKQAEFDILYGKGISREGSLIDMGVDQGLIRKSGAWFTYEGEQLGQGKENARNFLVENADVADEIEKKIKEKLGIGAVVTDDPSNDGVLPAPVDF
# Mtb growth = M. tuberculosis H37Rv growth inhibitors, H37Rv strain (AID 1626) | 0.95% of 220,000 active | M. tuberculosis H37Rv growth inhibition; higher % means a stronger effect | inhibition, % at 10 µM; hits with a dose series show IC50 in µM;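 active means confirmed in a dose series; inconclusive means inhibition above 80% but not taken into the dose series; inactive means below 80% or under 30% at every dose of the series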;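 further: bacteria incubated seven days before Alamar blue readout; 0% = bacteria only wells and 100% = bacteria with antibiotic wells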
# YopH inh = YopH tyrosine phosphatase inhibitors, primary screen, biochemical, fluorescence Ex485/Em525 | YopH tyrosine phosphatase [Yersinia enterocolitica] | inhibition, %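 (about 10 µM by stock and volumes)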 | 0.16% of 140,000 active | AID 898, 2007;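 active means inhibition of 50% or more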;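 further: controls were vehicle for no effect and minimum signal wells for full effect; inactives centre near -20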
# Mtb bLac sens = beta-lactam sensitization of Mtb H37Rv, H37Rv. M. tuberculosis H37Rv growth with meropenem, percent inhibition; hits of this screen are not shown here. inhibition, % at 25 µM. 0.27% of 330,000 active. AID 434955, 2010;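 active means about 74% or more and at least 40 points above the plate without the antibiotic, then above 30% in a dose series; inconclusive means first-round hits that could not be retested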;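 further: growth measured after seven days incubation then overnight dye step; 0% = bacteria only wells and 100% = bacteria with antibiotic; twin plates without the antibiotic show which effects depend on it; some results filed as inactive read as strong as hits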
# Arbovirus inh = antivirals against arbovirus infection, primary screen, cell-based, full library, 10K replicate subset. arbovirus infection cell-based antiviral screen. 0.37% of 200,000 active. AID 1251, 2008. inhibition, % at 10 µM;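 active means inhibition from about 30%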;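 further: bluetongue infection of BSR cells; cell survival read as ATP light after 72 h; 0% = infected wells without compound and 100% = uninfected wells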
# Arbovirus inh repeat = also measured in Arbovirus inh; calls as there; inhibition, %; measured here: 10K subset replicate screen; many hits read low in the repeat;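 first of two repeat runs on a subset; 0% = infected and 100% = uninfected wells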
# * hit, by the source's call; ? = inconclusive; . = not tested or not shown; & = joins results of further samples. Some of the compounds tested, so the mix of outcomes need not match the whole.
# Preview (6 entries):
SMILES,RecA intein inh,Mtb growth,YopH inh,Mtb bLac sens,Arbovirus inh,others
Cc1ccc(C(C)C)c(OCC(=O)OCc2c(C)noc2C)c1,3.6,?,-25,100,2,
CN(C)/C=C(\C(=O)c1cccc(Cl)c1)c1nnnn1-c1ccccc1,-7.9,3%,.,-3,.,
O=C(CN1C(=O)COc2ccc(S(=O)(=O)N3CCCC3)cc21)NC1CCCCCCC1,0.5,1%,-24,-3,5,
O=C(CSc1nnc(-c2ccc(F)cc2)o1)NC1CCCCC1,1.1,0%,.,-4,0,
COc1ccccc1Cn1c(=S)[nH]c2cc(C(=O)N3CCN(c4ccccc4OC)CC3)ccc2c1=O,-5.5,.,.,6,.,
O=C(O)c1cccc(NS(=O)(=O)c2cccc3nsnc23)c1,-5.3,-7%,-61,9,6,

# All compounds of this part, previewed entries included:
SMILES,RecA intein inh,Mtb growth,YopH inh,Mtb bLac sens,Arbovirus inh,others
Cc1ccc(C(C)C)c(OCC(=O)OCc2c(C)noc2C)c1,3.6,?,-25,100,2,
CN(C)/C=C(\C(=O)c1cccc(Cl)c1)c1nnnn1-c1ccccc1,-7.9,3%,.,-3,.,
O=C(CN1C(=O)COc2ccc(S(=O)(=O)N3CCCC3)cc21)NC1CCCCCCC1,0.5,1%,-24,-3,5,
O=C(CSc1nnc(-c2ccc(F)cc2)o1)NC1CCCCC1,1.1,0%,.,-4,0,
COc1ccccc1Cn1c(=S)[nH]c2cc(C(=O)N3CCN(c4ccccc4OC)CC3)ccc2c1=O,-5.5,.,.,6,.,
O=C(O)c1cccc(NS(=O)(=O)c2cccc3nsnc23)c1,-5.3,-7%,-61,9,6,
COc1cc2c(cc1N/C=C(\C#N)c1nc(-c3ccccc3)cs1)oc1ccccc12,-2.7,14%,.,-6,-11,
Fc1ccc(CNc2ccc(N3CCN(Cc4ccccc4)CC3)cc2)cc1,-6.6,.,.,3,.,
Clc1cccc(Nc2ncnc3ccc(Br)cc23)c1,2.2,54%,-21,49,-5,
CC(C)C(=O)c1cn(Cc2ccccc2C#N)c2ccccc12,0.0,1%,-7,-1,16,
COc1ccc(-c2cn(-c3ccc(C)c(Cl)c3)c(=S)[nH]2)cc1OC,-0.4,.,.,-5,.,
CN(CC1CCOCC1)C(=O)CC1C(=O)NCCN1Cc1ccc(Cl)c(F)c1 (stereo unspecified),-3.4,0%,.,-4,.,
N#Cc1cccnc1N1CCN(C(=O)c2ccco2)CC1,0.8,-3%,.,-2,.,
O=C(CCC(=O)c1ccc(Cl)cc1)NCc1ccccc1,0.6,.,.,-1,.,
CCN(CC)c1ccc(NC(=S)NC(=O)Cc2ccccc2)cc1,-4.7,7%,-12,-2,5,
COc1ccc(NC(=O)CN2C(=O)COc3ccccc32)cc1OC,-2.8,.,.,3,.,
CNC(=O)C1CC(=O)N(c2ccc(OCC(=O)N3CCCC3)cc2)C1 (stereo unspecified),-0.7,.,.,2,.,
CCN(CC)S(=O)(=O)c1ccc(C(=O)Nc2nnc(COC)o2)cc1,0.4,1%,.,-4,8,
O=C(CC1CCCCC1)NCCOc1ccccc1,0.5,8%,-23,-2,-6,
O=C(O)c1ccc(CSc2nnc(COc3ccccc3)o2)cc1,0.3,9%,.,-3,13,
COc1cc(OC)c2ccc(=O)oc2c1C(CC(=O)N1CCOCC1)c1ccc2c(c1)OCO2 (stereo unspecified),-2.4,-2%,.,-2,.,
COc1ccc(-n2c(SCC(=O)Nc3ccccc3C)nc(O)c(Cc3ccccc3)c2=O)cc1,0.2,.,.,-13,.,
O=S(=O)(Cc1ccccc1Cl)NCCc1ccccc1,0.0,2%,.,3,2,
COCCCN(Cc1ccccn1)S(=O)(=O)Cc1ccccc1,1.4,7%,-2,-1,2,
Cc1ccc(/C=C2\SC(=O)N(CCC(=O)N3CCN(C)CC3)C2=O)cc1,0.2,.,.,-4,.,
# Next part
SMILES,RecA intein inh,Mtb growth,YopH inh,Mtb bLac sens,Arbovirus inh,others
Cc1ccnc(NS(=O)(=O)c2ccc(N3C(=O)c4c(Cl)c(Cl)c(Cl)c(Cl)c4C3=O)cc2)n1,-1.2,-4%,3,-2,-9,
CC(=O)Nc1cc(C(=O)OCC(=O)c2ccc(Cl)cc2Cl)ccc1C,1.7,-7%,-21,-10,5,
O=C(NCCc1ccccc1)C(=O)c1c(-c2ccccc2)[nH]c2ccccc12,6.2,12%,-22,-5,-7,
O=C(NC(=S)N1CCOCC1)c1cc2ccccc2o1,3.3,5%,.,69,4,
c1ccc(-n2ncc3c(NCc4cccnc4)ncnc32)cc1,-0.5,6%,-46,0,9,Arbovirus inh repeat=10
COc1ccc(-c2nn3c(-c4ccccc4)nnc3s2)cc1,-1.7,14%,-38,59,-19,
Cc1cc(NCc2ccccn2)n2c(nc3ccccc32)c1C#N,-36,1%,.,.,-5,
COc1cnc(N(C)C)nc1Sc1cccc(Cl)c1,6.5,6%,-19,1,-7,
O=C1NC(c2ccccc2)=C(c2ccc3ccccc3n2)C(c2ccncc2)N1 (stereo unspecified),4.6,-3%,-9,0,2,
CCOc1ccc2oc(C(=O)NN3C(C)CCCC3C)c(C)c2c1 (stereo unspecified),-0.1,4%,.,0,1,
CCOC(=O)C1=C(C)N(CCCCCC(=O)O)C(=O)NC1c1cccc([N+](=O)[O-])c1 (stereo unspecified),-0.5,.,.,4,.,
CCc1ccc2[nH]cc(S(=O)(=O)c3ccc(C)c(C)c3)c(=O)c2c1,-0.8,.,.,-1,.,
COc1ccc(NC(=O)CCN2CCN(S(=O)(=O)c3ccc(OC)cc3)CC2)cc1,-2.5,1%,.,-5,-3,
CC1(C)CC(=O)C(C(O)c2ccc([N+](=O)[O-])cc2)C(C)(C)N1 (stereo unspecified),-2.6,.,.,?,.,
Cc1ccc(OCC(=O)OC(C)CN2CCCCC2)cc1 (stereo unspecified),1.2,.,.,6,.,
Cc1cccc(C(C)C)c1NC(=O)CN1C(=O)NC(Cc2ccccc2)C1=O (stereo unspecified),-0.2,.,.,-19,.,
CC(=O)C1C(c2ccc(F)cc2)C2C(C)=NN=C2CC1(C)O (stereo unspecified),-2.2,-4%,-14,-6,0,
C=CCC(C#N)(c1ccc(OC)c(OC)c1)c1cnccn1 (stereo unspecified),-0.8,.,.,-10,.,
Nc1ccc2c(c1)OC1(CCCC1)O2,-2.4,0%,.,-9,-9,
Cc1nnc(SCC(=O)NC(C)(C)C)n1CCc1ccccc1,-3.7,-7%,21,-2,9,
O=C(CN1C(=O)NC2(CCCCC2)C1=O)Nc1ccc(S(=O)(=O)N2CCOCC2)cc1,.,-1%,-11,-3,13,
N#CCP(=S)(c1ccccc1)c1ccccc1,-1.6,-2%,-22,1,-1,
CC(C)N(C)Cc1nnnn1CC(=O)N(C)Cc1ccc(F)cc1,-1.2,.,.,-4,.,
COc1ccccc1N(CC(=O)N/N=C/c1ccc(SC)cc1)S(C)(=O)=O,-0.1,3%,-30,1,-2,
COC(=O)C(Cc1cnc(Cl)s1)(C(=O)OC)c1ccc([N+](=O)[O-])cc1[N+](=O)[O-],-0.2,1%,-17,8,-1,
# (next part)
SMILES,RecA intein inh,Mtb growth,YopH inh,Mtb bLac sens,Arbovirus inh,others
Cc1ccccc1NC(=O)c1cc2ccccn2n1,-0.2,-6%,.,-3,.,
COc1cc(F)c(C(=O)NC(C)(C)CO)cc1OC,-1.3,0%,.,1,.,
O=c1cccc2n1CC1CC2CN(Cc2ccc3c(c2)OCO3)C1 (stereo unspecified),0.2,-1%,-33,3,-1,Arbovirus inh repeat=2
O=C(C1=C(O)C(=O)N(CC2CCCO2)C1c1ccccc1Cl)c1ccco1 (stereo unspecified),2.7,.,.,5,.,
C[N+]1(C)[C@@H]2CC(OC(=O)[C@H](CO)c3ccccc3)C[C@H]1[C@@H]1O[C@@H]12 (stereo partly specified),1.6&-2.0,-4%,-36,-5&-6,15&5,
O=C(NCC(=O)N1CCN(S(=O)(=O)c2cccs2)CC1)c1ccc(Cl)cc1,-2.1,-3%,.,-3,1,
Cn1c2ccccc2c2ncn(Cc3ccc(F)cc3)c(=O)c21,-1.0,-7%,.,3,.,
CCCCNC(=O)C1CC(c2ccccc2[N+](=O)[O-])=NO1 (stereo unspecified),-1.5,-12%,-30,-9,0,
N#CC(=C=[N-])C1=C(C#N)C(c2ccccc2F)C([n+]2ccccc2)C(O)(C2CC2)N1 (stereo unspecified),-0.1,-2%,-18,20,5,
O=C(NCc1ccc(Cl)cc1)C1CCN(C(=O)c2ccco2)CC1,1.5,.,.,-1,.,
CN(C)c1nc(OCCOC(=O)Nc2ccc(Cl)cc2Cl)nc(N(C)C)n1,-0.2,0%,-24,12,14,
O=C(CCN1CCN(CCO)CC1)Nc1ccccc1,3.7,.,.,-2,.,
Cc1ccc(N2C(=O)C3C4CC(=O)C(c5ccccc54)C3C2=O)cc1C (stereo unspecified),-0.4,1%,-15,5,-1,
Cc1cccn2cc(-c3ccccc3)nc12,1.8,6%,-21,26,4,
COc1ccc(C(C)NC(=O)CCc2ccccc2)cc1 (stereo unspecified),-1.9,.,.,-3,.,
CCC(CC)N1CCN(C(=O)Cc2ccccc2)CC1,-1.2,-4%,1,-1,4,
CNc1nc(NC#N)nc(SC)n1,-2.2,-2%,.,8,.,
COC(=O)CNC(=O)C1CCCN1C(=O)OC(C)(C)C (stereo unspecified),-2.0,2%,5,-1,6,
Cc1ccc(-n2ncc3c(N4CCC(C(N)=O)CC4)ncnc32)c(C)c1,0.8,6%,-16,-4,3,
COc1ccc(N2CCN(C(=O)Cc3ccc(C)cc3)CC2)cc1,-1.5,.,.,1,.,
CCCCCCCCCCCCCCCC[n+]1cccc(C(=O)N(CC)CC)c1,-0.6,5%,-29,93,-41,
Cn1c(=O)c(=O)n(C)c2cc(N3CCCC3)c(NS(=O)(=O)c3ccc(F)cc3)cc21,-3.1,.,.,3,.,
O=C(NCCNCc1cccs1)c1ccccc1F,-1.3,9%,.,3,11,
CN(C)/C=C1/OC(=O)C(C#N)=C1c1ccc(Cl)cc1,-24,.,.,-7,.,
N#C/C(=C\c1c(N2CCCCC2)nc2ccccn2c1=O)C(=O)NC1CCS(=O)(=O)C1 (stereo unspecified),-360,-3%,-38,?,7,
# (more compounds)
SMILES,RecA intein inh,Mtb growth,YopH inh,Mtb bLac sens,Arbovirus inh,others
Cc1ccc(C)n1-c1ccc(-c2nnc3n2CCCCC3)s1,0.0,-20%,-50,-5,-10,
COC(=O)c1cc(C(=O)CSc2nc(C)cc(C)n2)ccc1O,-0.2,-5%,-50,-16,5,
CC(=O)c1ccc(OCCn2c(SCC(=O)O)nc3ccccc32)cc1,0.4,.,.,-5,.,
CN1CCN(c2nc3c(c(=O)n(C)c(=O)n3C)n2Cc2ccccc2F)CC1,-2.6,.,.,0,.,
CSCC[C@H](NC(=O)C(C)(C)Oc1ccc(Cl)cc1)c1nc2ccccc2[nH]1,0.6,5%,-38,-3,27,
Cc1ccc2sc(N(CCCN(C)C)C(=O)c3ccc(S(=O)(=O)N(C)C)cc3)nc2c1C,-0.2,6%,.,-4,-8,
COC(=O)CNS(=O)(=O)c1ccc(C)cc1,.,6%,-20,-9,3,
O=C(Nc1ccc(Cl)cc1)c1ccncc1,0.0,-4%,-14,-1,1,Arbovirus inh repeat=0
OC(Cn1cccn1)c1ccccc1 (stereo unspecified),-4.6,-4%,-44,-9,-4,
Cc1ccc(N2CC(C(=O)N3CCCCCC3)CC2=O)cc1 (stereo unspecified),-0.5,.,.,-2,.,
C=CCOc1ccc(C(=O)Nc2ncn[nH]2)cc1,-3.7,.,.,-2,.,
Cc1cc2c(c(=O)o1)C(C1C=CCCC1)C(C#N)=C(N)O2 (stereo unspecified),.,11%,-18,?,5,
N#Cc1c(N)nc2c(c1-c1ccc(F)cc1)CCC2,-8.4,-6%,.,17,.,
Cc1ccc(S(=O)(=O)NCC2CCC(C(=O)NCc3cccnc3)CC2)cc1 (stereo unspecified),-1.7,-2%,.,0,-13,
Nc1c(-c2ccc(Cl)cc2)cnn1-c1ccccc1,2.8,.,.,-8,.,
S=C(NC1CCCCC1)N1CCN(C2CCCCC2)CC1,-2.5,8%,.,-1,-2,
O=C(Nc1ccc(F)cc1)Nn1cnnc1,-3.7,.,.,3,.,
CNc1ccccc(C(=O)/C=C/c2ccccc2OC)c1=O,-11,-4%,-29,0,-1,
C=CCN1C(=O)C2(C(C(=O)OCC)=C(N)Oc3ccccc32)c2c1c1ccccc1oc2=O (stereo unspecified),-1.3,-16%,-13,6,1,
COC(=O)c1ccc([N+](=O)[O-])cc1N1C(=O)C2C3CCC(C3)C2C1=O (stereo unspecified),-1.5,3%,.,6,-2,
CCOC(=O)c1c(C)cc(=O)oc1C,0.6,1%,-7,-6,6,
O=S(=O)(Nc1ncccn1)c1ccc(-n2cnnn2)cc1,2.8,-10%,.,0,-8,
